Screens from PubChem BioAssay.
Mtb bLac sens: beta-lactam sensitization of Mtb H37Rv. M. tuberculosis H37Rv growth with meropenem, percent inhibition; hits of this screen are not shown here. inhibition, % at 25 µM. 330,000 tested, 0.27% active. AID 434955;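 active means about 74% or more and at least 40 points above the plate without the antibiotic, then above 30% in a dose series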;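 further: growth measured after seven days incubation then overnight dye step; 0% = bacteria only wells and 100% = bacteria with antibiotic; twin plates without the antibiotic show which effects depend on it; some results filed as inactive read as strong as hits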
YopH inh: YopH (Yersinia) phosphatase inhibition; inhibition, %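 (about 10 µM by stock and volumes)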; fluorescence Ex485/Em525; AID 898; 140,000 tested, 0.16% active;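 active means inhibition of 50% or more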;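 further: controls were vehicle for no effect and minimum signal wells for full effect; inactives centre near -20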
Arbovirus inh: antivirals against arbovirus infection; arbovirus infection cell-based antiviral screen; inhibition, % at 10 µM; 200,000 tested, 0.37% active; AID 1251;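 active means inhibition from about 30%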;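 further: bluetongue infection of BSR cells; cell survival read as ATP light after 72 h; 0% = infected wells without compound and 100% = uninfected wells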
Mtb H37Rv: M. tuberculosis H37Rv growth inhibitors, H37Rv strain (AID 1626) | inhibition, % at 10 µM, or IC50 in µM where a hit was titrated | M. tuberculosis H37Rv growth inhibition; higher % means a stronger effect | 220,000 tested, 0.95% active;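 active means confirmed in a dose series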;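 further: bacteria incubated seven days before Alamar blue readout; 0% = bacteria only wells and 100% = bacteria with antibiotic wells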
RecA intein inh: blocks M. tuberculosis RecA intein splicing | 290,000 tested, 0.75% active | inhibition, %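 (about 9 µM by stock and volumes)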 | AID 2221 | P9WHJ3 | cell-free RecA intein splicing, fluorescence; in the data active means inhibition above about 30%;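 further: 0% = vehicle wells and 100% = reference inhibitor control wells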
Target sequence (P9WHJ3 whole entry, looked up): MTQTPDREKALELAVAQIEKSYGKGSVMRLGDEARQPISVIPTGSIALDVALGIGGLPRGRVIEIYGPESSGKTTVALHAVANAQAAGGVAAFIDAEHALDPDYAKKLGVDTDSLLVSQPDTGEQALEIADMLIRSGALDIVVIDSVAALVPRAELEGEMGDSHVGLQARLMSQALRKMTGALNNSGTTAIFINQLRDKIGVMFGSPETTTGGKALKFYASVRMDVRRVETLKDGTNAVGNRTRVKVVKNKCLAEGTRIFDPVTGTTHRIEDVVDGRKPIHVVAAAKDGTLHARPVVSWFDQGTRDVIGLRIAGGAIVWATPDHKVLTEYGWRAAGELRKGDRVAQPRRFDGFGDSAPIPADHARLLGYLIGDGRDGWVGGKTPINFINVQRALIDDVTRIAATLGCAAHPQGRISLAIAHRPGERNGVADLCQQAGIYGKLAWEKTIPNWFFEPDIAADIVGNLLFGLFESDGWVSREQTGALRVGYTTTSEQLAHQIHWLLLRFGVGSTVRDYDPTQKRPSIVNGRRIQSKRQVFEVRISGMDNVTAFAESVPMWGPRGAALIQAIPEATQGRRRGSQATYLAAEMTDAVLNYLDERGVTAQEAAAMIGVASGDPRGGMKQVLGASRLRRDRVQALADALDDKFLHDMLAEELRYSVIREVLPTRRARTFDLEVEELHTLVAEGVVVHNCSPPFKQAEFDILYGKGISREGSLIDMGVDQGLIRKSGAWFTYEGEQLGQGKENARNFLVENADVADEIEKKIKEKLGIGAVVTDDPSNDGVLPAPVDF
Arbovirus inh repeat: further read-out of Arbovirus inh, marked with its call; inhibition, %; measured here: 10K subset replicate screen; many hits read low in the repeat;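 first of two repeat runs on a subset; 0% = infected and 100% = uninfected wells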
* marks the source's active call; other numbers are inactive results; nt = not tested or not shown. This is a subset; count on the stated rates, not on these rows.

SMILES	Mtb bLac sens	YopH inh	Arbovirus inh	Mtb H37Rv	RecA intein inh	others
CC(C)(C)n1nc2c(c1NC(=O)c1cc3ccccc3o1)CS(=O)(=O)C2	-11	nt	1	-2%	-1.4
C=CCn1c(O)c(C=NCCN2CCOCC2)c(=O)[nH]c1=S	2	nt	nt	6%	-1.1
C=CCn1c(Cc2cccs2)nnc1SCC(=O)NCc1ccco1	-2	9	0	-7%	2.7
N#CCCN1CCN(CCC#N)CC1	3	-49	4	-3%	0.6
COc1cc(C)c(NC(=O)C(=S)NCCc2ccccc2)cc1C	-3	nt	6	4%	-2.6
CC(C)(C)c1ccc(OC(=O)c2cccnc2)cc1	8	-5	2	1%	1.4
COc1cc(C)c(C)cc1S(=O)(=O)N1CCCc2ccccc21	-1	nt	nt	nt	6.8
Cc1cc(/C=N/NC(N)=O)c(C)n1-c1ccc(F)cc1	-1	nt	1	-6%	4.7
NC(=O)CCn1nc(-c2ccccc2)c2ccccc2c1=O	17	-30	-6	2%	3.6	Arbovirus inh repeat=-4
COc1ccc(N2CC(C(=O)NC3CCSC3=O)CC2=O)cc1 (stereo unspecified)	-5	nt	nt	nt	2.9
CC(C)OCCCNC(=O)CN1C(=O)/C(=C/c2ccccc2)Sc2ccccc21	6	1	-6	-1%	-1.7
CC(=O)N(C)c1ccc(NC(=O)/C=C/c2ccccc2Cl)cc1	-1	-1	-6	8%	-0.4
CSc1nc(-c2ccc(N(C)C)cc2)c(C#N)c(=O)n1C	6	nt	-3	nt	-29
COC(=O)c1ccc(CSc2nnc(CS(=O)Cc3ccc(Br)cc3)n2-c2ccccc2)cc1 (stereo unspecified)	4	-12	11	9%	9.1
CN1CCN(S(=O)(=O)Cc2ccc(Cl)cc2)CC1	-6	nt	nt	-2%	0.5
O=C(NCCc1ccccc1)[C@@H]1CC=C[C@@H]2CCN(Cc3ccccc3)C(=O)[C@@H]21	1	nt	nt	4%	-2.2
Cc1cccc(N2C(=O)C(O)=C(C(=O)c3cccs3)C2c2ccc(C(C)C)cc2)n1 (stereo unspecified)	-9	nt	nt	-1%	2.8
O=c1cc(N2CCc3ccccc32)[nH]c(=O)n1-c1ccc(Cl)cc1	21	nt	6	7%	6.5
COc1ccc(-c2nnc(SCC(=O)Oc3ccc(C)cc3)o2)cc1	30	-9	-4	4%	12
CS(=O)(=O)N1CCc2cc(C(=O)OCC(=O)c3ccccc3)ccc21	-13	-8	26	11%	2.6
COc1ccc(CNC(=O)CS(=O)Cc2nc(-c3ccc(OC)c(OC)c3)oc2C)cc1 (stereo unspecified)	0	nt	nt	nt	-1.0
CC1=NN(C(=O)c2ccccc2)C(O)(c2ccc(Br)cc2)C1 (stereo unspecified)	1	nt	nt	6%	7.2
CC(C)[C@H](Nc1ccc(S(=O)(=O)N2CCOCC2)cc1[N+](=O)[O-])C(=O)OCC(=O)N(C(C)C)C(C)C	-5	-6	-3	3%	-0.3
Cc1cccc(NC(=O)C2CCN(C(=O)NC3CCCCC3)CC2)c1	1	nt	nt	nt	-0.8
CCCCNc1nnc(Cc2ccc(Cl)cc2)c(=O)[nH]1	-4	nt	nt	nt	-1.9
CCN(CC)S(=O)(=O)c1ccc(C(=O)NC2=NCCS2)cc1	3	nt	nt	nt	-9.0
CN1CCC(=NNC(=O)C(=O)NC(C)(C)C)CC1	7	-6	2	2%	3.6
O=C(Nc1ccccc1N1CCOCC1)C1(c2ccc(Cl)cc2)CCC1	4	nt	0	1%	0.1
Cc1ccccc1N1CCN(S(=O)(=O)N(C)C)CC1	0	nt	-3	9%	0.9
CC(C)(C)OC(=O)N1CCN(C(=O)Cn2cc(CCO)nn2)CC1	2	nt	2	0%	-0.4
CCOC(=O)CCCNC(=O)CN1C(=O)NC(c2ccccc2)(c2ccccc2)C1=O	-4	nt	nt	nt	-3.0
CCc1cc(/C(Cc2csc(C)n2)=N/O)c(O)cc1O	9	-8	3	1%	-2.9
Cc1cc(C)c(OCC(=O)Nc2nnc(-c3ccco3)o2)c(C)c1	13	nt	2	-3%	-0.2
CC(=O)N1CCc2cc(S(=O)(=O)NC(C(=O)NCc3ccccc3)C(C)C)ccc21 (stereo unspecified)	4	-33	-2	-5%	nt
Cc1ccc(C(=O)OC(C)C(=O)NCc2ccc3c(c2)OCO3)cc1S(=O)(=O)N1CCOCC1 (stereo unspecified)	-3	nt	nt	nt	-1.8
O=c1c2ccccc2nc2n1C(CSc1ccccc1)CS2 (stereo unspecified)	-2	nt	6	-5%	11
C=CCn1c(SCC(=O)c2ccc(CNC(C)=O)o2)nc2scc(C3CC3)c2c1=O	-4	-42	16	-5%	0.7
CSCC[C@H](NC(=O)N1C[C@H]2C[C@@H](C1)c1cccc(=O)n1C2)C(=O)Nc1ccc(NC(C)=O)cc1	-4	nt	nt	nt	0.6
Cc1ccc(-c2nc3cnccn3c2Nc2ccc3c(c2)OCCO3)o1	4	-41	-6	-6%	-5.6	Arbovirus inh repeat=2
O=C(NCc1ccc2c(c1)OCO2)C(c1ccco1)N(C(=O)c1csnn1)c1ccccc1 (stereo unspecified)	-6	-3	-4	-5%	-2.5

Next part; the last 2 above are carried over.
SMILES	Mtb bLac sens	YopH inh	Arbovirus inh	Mtb H37Rv	RecA intein inh	others
Cc1ccc(-c2nc3cnccn3c2Nc2ccc3c(c2)OCCO3)o1	4	-41	-6	-6%	-5.6	Arbovirus inh repeat=2
O=C(NCc1ccc2c(c1)OCO2)C(c1ccco1)N(C(=O)c1csnn1)c1ccccc1 (stereo unspecified)	-6	-3	-4	-5%	-2.5
COc1ccccc1Cn1c(=O)[nH]c2cccnc21	-6	-21	-2	0%	-0.9
O=C(CCNC(=O)N1CCn2c1nc1ccccc12)NCc1ccc(Cl)cc1	7	nt	nt	nt	-3.4
Cc1ccccc1OCCNC(=O)CNC(=O)c1ccccc1O	-9	-17	1	3%	-5.9
CCC(=O)Nc1ccc2c(c1)nc(CCN1CCN(c3ccccc3)CC1)n2C	-3	nt	nt	-9%	-1.0
COc1ccc2nc(NCc3cccnc3)sc2c1	1	nt	nt	nt	2.0
COc1cc(OC)c(C2=Nc3ccc(Br)cc3C(c3ccccc3)N2CC(=O)NN)cc1OC (stereo unspecified)	14	nt	-6	-2%	nt
O=C1COc2ccc(C(=O)COC(=O)c3ccc(S(=O)(=O)C(F)F)cc3)cc2N1	-5	nt	nt	nt	1.6
Oc1ccc2ccccc2c1CN1CCN(c2ccccc2F)CC1	nt	-26	7	-1%	-0.9	Arbovirus inh repeat=9
O=C(NCC1CCCO1)c1ccc2c(c1)C(=O)N(C1CCCCC1)C2=O (stereo unspecified)	-4	-32	-3	2%	-0.8	Arbovirus inh repeat=-1
CC1(C)Oc2ccc(/C=C/C(=O)N3CCOCC3)c(O)c2C(N2CCOCC2)C1O (stereo unspecified)	5	-27	2	-2%	-4.4
CCc1ccc(/C=C2/SC(=S)N(CCC(=O)NCCCN3CCOCC3)C2=O)cc1	-3	nt	nt	nt	-1.3
O=c1cc2c(nn1Cc1ccc(Cl)cc1)-c1ccccc1CC2	3	-16	-4	-3%	3.7
O=C(CCNS(=O)(=O)c1cccs1)NCc1ccccc1	0	-13	-3	0%	0.6
O=C(CN(C(=O)CNC(=O)c1cccs1)c1ccc(F)cc1)NC1CCCC1	-1	nt	nt	nt	1.3
O=C(Nc1ccccc1)C1=C[C@H](c2ccc(C(F)(F)F)cc2)C[C@H](OCCCCO)O1	37	nt	nt	17%	5.1
C/C=C\C(=O)Nc1cccc(C2=NOC3(C2)C[C@@H](C(N)=O)N(C(=O)c2ccccc2)C3)c1 (stereo partly specified)	-14	nt	nt	-7%	-2.5
CCN(CC)S(=O)(=O)c1cccc(NC(=O)CC2CCCC2)c1	-1	nt	nt	nt	1.9
O=Cc1c(NCc2ccc(F)cc2)c2ccccc2[nH]c1=O	4	nt	nt	nt	0.3
CCOc1cccc(-c2nnc(SCC(=O)Nc3cccc(OC)c3)n2N)c1	nt	-26	4	-6%	2.8
Cc1ccc(N2C(=O)CN(Cc3ccccc3)C2=S)cc1C	1	nt	nt	nt	1.8
O=C(COC(=O)Cc1ccc(Br)cc1)NCc1ccc(F)cc1	-14	nt	4	1%	11
C=CC(COCc1ccccc1)N(C(=O)OC(C)(C)C)S(=O)(=O)c1ccccc1Br (stereo unspecified)	-12	nt	nt	-8%	2.4
Cc1[nH]c2ccc(F)cc2c1CCN(Cc1ccncc1)C(=S)Nc1cccc(F)c1	-10	nt	4	20%	10
Cc1ccc2c(c1)N(CCC(=O)NCc1cccs1)C(=O)C(C)O2 (stereo unspecified)	-1	19	3	1%	-2.6
COc1ccc2nc(NC(=O)c3ccoc3C)sc2c1	-2	42	-32	8%	0.0
CC(=O)Nc1ccc(S(=O)(=O)Nc2ccccc2C(=O)N2CCCCC2)cc1	-9	nt	nt	nt	0.6
Cc1ccccc1C(=O)NC(=S)NCCc1ccccc1	2	-21	4	4%	3.1
COc1cc(O)cc2c1[C@@H]1Oc3c(ccc(O)c3CC=C(C)C)[C@@H]1CO2	-1	nt	nt	1%	1.8
c1ccc(-n2nc3ccccc3n2)cc1	-13	-16	-1	-2%	1.3
O=C1CC(N2CCN(c3ccccc3Cl)CC2)C(=O)N1c1ccccc1 (stereo unspecified)	-4	-25	5	-9%	-1.0
Cc1cccc(N(CC(=O)NC2CC3CCC2C3)S(=O)(=O)c2ccccc2)c1 (stereo unspecified)	11	nt	nt	nt	4.1
CN(C)CCNc1c(N)c(=O)oc2ccccc12	1	nt	1	-3%	-2.6
Cc1ccc(S(=O)(=O)CC(=O)c2ccccc2[N+](=O)[O-])cc1	1	nt	nt	nt	1.4
Cc1nc2ccccc2n1-c1nc(-c2ccco2)cc(C(F)(F)F)n1	-2	-22	-32	4%	-0.7
Cc1ccc(S(=O)(=O)N(C)C)cc1NC(=O)COC(=O)COc1ccc2c(c1)CCC2	-6	nt	nt	nt	3.4
COc1cccc2sc(N(CCCN(C)C)C(=O)COc3ccc(Cl)cc3)nc12	-2	nt	2	-2%	-2.4
COCCNc1nc(=S)[nH]c2cc(OC)c(OC)cc12	-5	2	-4	-6%	-3.9
COc1ccc2[nH]c(=O)c(CN(C(C)=O)c3ccc(C)c(C)c3)cc2c1	4	nt	nt	nt	-0.2
CN(C)c1ccc(N/C=C/C(=O)C(C)(C)C)cc1	12	-2	-10	-6%	4.0
O=C(c1cnn2c(C(F)(F)F)cc(-c3ccco3)nc12)N1CCCc2ccccc21	4	-50	0	-2%	0.8
Cc1ccc2cc(C#N)c(SCc3nnc(-c4ccccc4[N+](=O)[O-])o3)nc2c1	-6	-26	-17	-17%	1.2
CC(C)(C)c1ccc(OCCOc2ccc(C(C)(C)C)cc2NC=O)c(NC=O)c1	3	nt	nt	8%	5.7
CCc1ccc2ncc(S(=O)(=O)c3ccc(C)c(C)c3)c(N3CCCC3)c2c1	8	-17	-22	-5%	17
CCCCOC(=O)C1=C(C)Nc2ncnn2C1c1cc(OC)c(OC)cc1OC (stereo unspecified)	2	-42	3	-15%	5.4
COc1ccccc1OCCCC(=O)Nc1ccc([N+](=O)[O-])cc1Br	3	nt	12	2%	3.0
Cc1n[nH]c(=O)c2c1nnn2Cc1ccccc1Cl	0	nt	nt	nt	-0.3
CCCOc1cccc(-c2nn(-c3ccccc3)cc2/C=C(\C#N)C(=O)NCCCn2ccnc2)c1	100	-15	-11	11µM*	16
COc1ccccc1N(CC(=O)NC(C)(C)C)C(=O)CCC(=O)Nc1nccs1	2	nt	nt	nt	-1.0

Arranged by SMILES length (descending): some entries from above
SMILES	Mtb bLac sens	YopH inh	Arbovirus inh	Mtb H37Rv	RecA intein inh	others
Cc1ccc(S(=O)(=O)N(C)C)cc1NC(=O)COC(=O)COc1ccc2c(c1)CCC2	-6	nt	nt	nt	3.4
Cc1ccc2cc(C#N)c(SCc3nnc(-c4ccccc4[N+](=O)[O-])o3)nc2c1	-6	-26	-17	-17%	1.2
O=C(c1cnn2c(C(F)(F)F)cc(-c3ccco3)nc12)N1CCCc2ccccc21	4	-50	0	-2%	0.8
CCc1ccc2ncc(S(=O)(=O)c3ccc(C)c(C)c3)c(N3CCCC3)c2c1	8	-17	-22	-5%	17
COc1ccc2[nH]c(=O)c(CN(C(C)=O)c3ccc(C)c(C)c3)cc2c1	4	nt	nt	nt	-0.2
COc1ccccc1N(CC(=O)NC(C)(C)C)C(=O)CCC(=O)Nc1nccs1	2	nt	nt	nt	-1.0
COc1cccc2sc(N(CCCN(C)C)C(=O)COc3ccc(Cl)cc3)nc12	-2	nt	2	-2%	-2.4
CCCCOC(=O)C1=C(C)Nc2ncnn2C1c1cc(OC)c(OC)cc1OC (stereo unspecified)	2	-42	3	-15%	5.4
COc1ccccc1OCCCC(=O)Nc1ccc([N+](=O)[O-])cc1Br	3	nt	12	2%	3.0
Cc1nc2ccccc2n1-c1nc(-c2ccco2)cc(C(F)(F)F)n1	-2	-22	-32	4%	-0.7
COCCNc1nc(=S)[nH]c2cc(OC)c(OC)cc12	-5	2	-4	-6%	-3.9
Cc1n[nH]c(=O)c2c1nnn2Cc1ccccc1Cl	0	nt	nt	nt	-0.3
